High-throughput results from PubChem.
D2 potentiator – Beta-Arrestin HTS for Positive Allosteric Modulators of the Human D2 Dopamine Receptor: Potentiators. D(2) dopamine receptor (Homo sapiens), P14416. DiscoveRx D2 beta-arrestin cells, luminescence, 90 min; 100% = 57 uM dopamine signal. potentiation, % (no concentration beside the values). 360,000 compounds, 0.23% hits; active = potentiation of 50% or more; inconclusive = 30% to 50%; inactive = 30% or less;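 note: compound concentration not given in the record; tested on top of an EC20 dose of dopamine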
Target sequence (P14416 whole entry, looked up): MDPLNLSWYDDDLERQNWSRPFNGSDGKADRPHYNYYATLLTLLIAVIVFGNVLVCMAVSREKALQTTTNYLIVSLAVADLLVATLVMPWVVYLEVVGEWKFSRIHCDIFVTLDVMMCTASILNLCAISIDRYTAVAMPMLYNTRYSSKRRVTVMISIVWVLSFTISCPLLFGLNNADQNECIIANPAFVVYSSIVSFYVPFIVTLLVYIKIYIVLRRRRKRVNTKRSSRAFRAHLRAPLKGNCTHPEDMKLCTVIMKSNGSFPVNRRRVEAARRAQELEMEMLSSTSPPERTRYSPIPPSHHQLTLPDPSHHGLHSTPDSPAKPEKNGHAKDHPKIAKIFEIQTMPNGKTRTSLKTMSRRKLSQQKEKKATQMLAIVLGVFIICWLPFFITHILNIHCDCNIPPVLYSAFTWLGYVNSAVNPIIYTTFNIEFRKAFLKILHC
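D2 cells co-treated with compound plus 50 nM dopamine (EC20) for 90 min at 37 deg C to detect potentiation. Beta-arrestin recruitment was read as enzyme-fragment luminescence after 1 h at ambient temperature. Full response was set by 57 uM dopamine.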
Six1-Eya2 blk – qHTS Assay for Inhibitors of the Six1/Eya2 Interaction. Homeobox protein SIX1 (Homo sapiens) + Protein phosphatase EYA2 (Homo sapiens), …. AlphaScreen GST-Six1/His-Eya2 binding, biochemical; active compounds read low; control for the full effect not named in the record. activity change, % (no concentration beside the values). 360,000 compounds, 0.56% hits. AID 651725, 2012; in the data active = activity change below about -65%; inconclusive = about -30% to -65%; inactive = above about -30%; note: % is set by controls: 0 for no effect and ±100 for the full control effect
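AlphaScreen with GST-Six1 and His-Eya2 (5X mix: 250 nM and 500 nM), glutathione donor and nickel acceptor beads; buffer 50 mM Tris pH 8.0, 300 mM NaCl, 1 mM TCEP; 1 h at 37 C in the dark.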
CtBP-E1A inh – qHTS Assay for Inhibitors of the CtBP/E1A Interaction. AlphaScreen GST-E1A/His-CtBP binding, 1536-well; active compounds read low; control for the full effect not named in the record. activity change, % (no concentration beside the values). AID 651724, 2012. 340,000 compounds, 0.49% hits; in the data active means activity change below about -65%; inconclusive means about -30% to -65%; inactive means above about -30%; note: % is set by controls: 0 for no effect and ±100 for the full control effect
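GST-E1A and His-tagged CtBP (125 nM each as 5X stock) were preincubated with pin-transferred compound for 2 h at 37 °C in the dark, then glutathione donor and nickel acceptor beads were added for 1 h before AlphaScreen reading.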
TRPV1 potentiator – HTS Assay for Compounds that Act as Potentiators of the Vanilloid Receptor 1. potentiation, % at 8.33 µM. Transient receptor potential cation channel subfamily V member 1 (Homo sapiens), Q8NER1. 320,000 compounds, 0.02% hits. TRPV1-expressing cells, Fluo-8 calcium influx, capsaicin EC20 potentiation; host cell line not named in the record; control for the full effect not named in the record. AID 540277, 2011; active means potentiation above 80%; inconclusive means 30% to 80%; inactive means below 30%; note: 0% is about no effect
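Cells expressing TRPV1 were dye-loaded with Fluo-8 and read kinetically: 10 s baseline, 3 min after compound (agonist portion), then 2 min after EC20 capsaicin (allosteric enhancer portion). Calcium-bound dye fluorescence at 480/520 nm.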
TRPML1 agonist – qHTS for Agonists of the Human Mucolipin Transient Receptor Potential 1 (TRPML1); TRPML1-expressing cells, Ca2+ dye fluorescence, FDSS; host cell line not named in the record; reference of the full effect not given here; activation, % (concentration not given with the values); 410,000 compounds, 0.12% hits; in the data active = activation above about 50%; inconclusive = about 30% to 50%; inactive = below about 30%; note: 0% is about no effect; the text of the record puts the active cut at 80%
Target sequence (Q9GZU1 whole entry, looked up): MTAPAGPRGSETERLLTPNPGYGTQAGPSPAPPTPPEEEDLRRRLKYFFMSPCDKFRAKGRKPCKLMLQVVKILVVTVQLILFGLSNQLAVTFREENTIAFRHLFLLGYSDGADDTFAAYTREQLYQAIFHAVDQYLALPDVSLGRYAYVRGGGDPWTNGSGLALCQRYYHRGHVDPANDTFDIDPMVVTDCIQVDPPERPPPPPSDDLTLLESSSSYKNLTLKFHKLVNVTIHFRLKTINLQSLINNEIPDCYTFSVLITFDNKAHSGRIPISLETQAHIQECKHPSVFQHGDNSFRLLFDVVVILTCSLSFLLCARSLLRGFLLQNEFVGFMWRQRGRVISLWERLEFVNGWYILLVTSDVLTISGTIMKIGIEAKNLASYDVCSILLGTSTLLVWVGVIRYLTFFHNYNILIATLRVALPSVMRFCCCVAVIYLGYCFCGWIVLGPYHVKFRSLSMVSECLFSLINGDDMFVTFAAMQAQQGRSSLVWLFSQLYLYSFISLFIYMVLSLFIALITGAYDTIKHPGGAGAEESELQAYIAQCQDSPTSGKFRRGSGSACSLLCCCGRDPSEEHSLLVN
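TRPML1-DL cells, Tet-induced overnight (~16 h, 37 degrees C), loaded 45-90 min at room temperature with Ca8 no-wash calcium dye plus quencher. FDSS fluorescence: 10 s baseline, compound pin-transfer, 110 s agonist read, then EC80 54-4 (4uM final) and 110 s antagonist read.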
TRPML1 inh – qHTS for Inhibitors of the Human Mucolipin Transient Receptor Potential 1 (TRPML1) | TRPML1-inducible cells, Ca2+ dye fluorescence, FDSS; active compounds read low; inhibition of EC80 agonist-evoked calcium signal | activity change, negative = inhibition, % (concentration not given with the values) | 390,000 compounds, 0.02% hits; in the data active means activity change below about -50%; inconclusive means about -30% to -50%; inactive means above about -30%;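 note: stimulus is agonist 54-4 at its EC80 concentration; % is set by controls: 0 for no effect and ±100 for the full control effect; the text of the record puts the active cut at -80%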
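Tet-induced TRPML1-DL cells loaded with Ca8 no-wash calcium dye were read kinetically on FDSS. Compound addition was followed by EC80 agonist 54-4 (4 uM final); inhibition was read over 110 s.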
* hit, by the source's call; ? = inconclusive; · = not tested or not shown; & = joins results of further samples.

SMILES	D2 potentiator	Six1-Eya2 blk	CtBP-E1A inh	TRPV1 potentiator	TRPML1 agonist	TRPML1 inh
CCCCn1nnnc1C(c1cc2ccccc2o1)N1CCN(c2cc(C)nc3ccccc23)CC1 (centres undefined)	·	-15	-13	·	-0.2	·
Cc1cc(C(=O)NN=C2CCCCCC2)c(C)o1	-2	2	4	11	0.0	31
c1coc(CNC2C3CC4CC(C3)CC2C4)c1 (centres undefined)	-4	-6	2	5	-0.6	6
Cc1cc(/C=C(\C#N)C(=O)O)c(C)n1-c1ccc(Br)cc1	-4	-2	0	-3	·	·
CC(=O)Nc1ccccc1-c1nc2ccccc2nc1OCC(=O)c1ccc2ccccc2c1	-11	-6	1	8	2.0	7
COc1ccc(OC)c(CNc2ncc(-c3ccc(F)cc3)n2C)c1	-7	-13	-15	-6	0.9	11
Cc1cccc(NC(=O)c2ccc(C)c(S(=O)(=O)N3CCCCC3)c2)n1	-4	-7	-5	-15	-0.2	5
CC(C)[C@H](CO)Nc1nc(NCc2ccc(S(N)(=O)=O)cc2)c2ncn(C(C)C)c2n1	-8	2	0	-26	-1.0	-4
COC(=O)CCC(C(=O)CN1C(=O)c2ccccc2C1=O)N1C(=O)c2ccccc2C1=O (centres undefined)	-12	3	5	·	-0.4	-9
COc1cc(O)cc2c1[C@@H]1Oc3c(ccc(O)c3CC=C(C)C)[C@@H]1CO2	28	-4	-3	·	·	·
COCCN(C(=O)Cn1nnc2ccccc21)C(C(=O)NC1CCCC1)c1cc(OC)ccc1OC (centres undefined)	-16	21	30	2	-0.5	51
CC1=C(C(N)=O)C(c2ccccc2F)NC(=O)N1 (centres undefined)	-17	0	8	5	-0.6	-10

Molecules from the list above that contain four or more nitrogen atoms (3):
SMILES	D2 potentiator	Six1-Eya2 blk	CtBP-E1A inh	TRPV1 potentiator	TRPML1 agonist	TRPML1 inh
CCCCn1nnnc1C(c1cc2ccccc2o1)N1CCN(c2cc(C)nc3ccccc23)CC1 (centres undefined)	·	-15	-13	·	-0.2	·
CC(C)[C@H](CO)Nc1nc(NCc2ccc(S(N)(=O)=O)cc2)c2ncn(C(C)C)c2n1	-8	2	0	-26	-1.0	-4
COCCN(C(=O)Cn1nnc2ccccc21)C(C(=O)NC1CCCC1)c1cc(OC)ccc1OC (centres undefined)	-16	21	30	2	-0.5	51

More records follow.
SMILES	D2 potentiator	Six1-Eya2 blk	CtBP-E1A inh	TRPV1 potentiator	TRPML1 agonist	TRPML1 inh
COCCN(C(=S)Nc1ccc(OC)cc1)C1CCN(C(C)C)CC1	-19	1	-1	-1	0.2	13
CCC(=O)C1=C(O)C(c2cccc(Oc3ccccc3)c2)CCC1=O (centres undefined)	-7	6	·	0	2.0	-4
N=C1SC(c2ccccc2)C(=O)N1c1ncc(Cc2ccccc2Cl)s1 (centres undefined)	14	-16	2	1	-0.1	-16
COc1cccc2c1C(=O)C[C@]1(CCCC[C@@H]1C)O2	-10	14	12	-13	-0.3	6
CC(OC(=O)CNC(=O)c1ccc2ccccc2c1)C(=O)NC1CCCCC1C (centres undefined)	-1	3	4	12	0.7	0
O=C(CSc1nnc(-c2ccncc2)o1)NCc1ccc(Cl)cc1	-2	4	-4	-2	-0.2	-4
NC(=Nc1c([N+](=O)[O-])cnc2ccccc12)N1CCOCC1	-9	2	-3	·	-0.1	·
C[C@]12C(=O)N(c3ccc(F)cc3)C(=O)N1[C@H]1c3ccccc3OC[C@@H]1[C@H]2c1ccccc1	-10	-12	-8	·	2.0	24
COC(=O)C1CN(C(=O)c2cccc(OC(F)F)c2)c2ccccc2O1 (centres undefined)	-6	-1	0	12	-0.3	30
NS(=O)(=O)c1ccc(NC(CNS(=O)(=O)c2ccccc2)c2ccccc2)cc1 (centres undefined)	-10	-2	1	7	-0.5	-2
Cc1cc(/C([O-])=C(/C(=S)Nc2ccc(F)cc2)[n+]2ccccc2)c(C)n1-c1ccc(F)cc1	-18	-13	-14	-8	0.0	7
CC(OC(=O)c1ccc(Cl)nc1)C(=O)Nc1ccc(S(=O)(=O)N2CCCC2)cc1 (centres undefined)	-11	12	-18	1	0.4	15
CCc1ccccc1NC(=O)CN1CCN(C(=O)c2ccc(OCc3cn4ccccc4n3)cc2)CC1	0	-1	1	5	1.3	3
CC(C)Oc1ccc(S(=O)(=O)N2CCOCC2)cc1NC(=O)CSC(=S)N1CCCC1	8	-11	2	·	1.0	7
O=C(C1=C(O)C(=O)N(CCN2CCOCC2)C1c1ccc(Br)cc1)c1cc2ccccc2o1 (centres undefined)	-10	-7	·	-2	0.3	-8
NS(=O)(=O)c1ccc(NNC(=O)c2ccc(F)cc2F)cc1	5	3	-1	-4	0.0	3
CNc1cccc(-c2c(OC)cccc2OC)n1	12	3	1	·	-1.3	·
Nc1c2c(nc3ccccc13)N(C1CCCCC1)CC2	-39	-3	6	-4	1.2	7
CC1CCCCC1NC(=O)CSc1ccc([N+](=O)[O-])cc1 (centres undefined)	-1	6	4	6	0.0	-9
CCCN1CCN(CCCNC(=O)c2cc3c(s2)-c2c(C)cccc2OC3)CC1	-29	-1	-2	13	0.4&-0.6	10&-13
Cc1ccc(CC2SC(N)=NC2=O)cc1 (centres undefined)	-1	-4	14	-18	-0.2	-26
Cc1cc(N2CCN(C)CC2)nc2ccc(NC(=S)NCCCN3CCN(C)CC3)cc12	-15	3	·	-1	0.4	-23
COc1ccc(N2C(=O)CCC(C(=O)NCc3ccccn3)C2c2ccc(F)cc2)cc1 (centres undefined)	-6	3	-1	5	0.0	-16
NC(=S)N(c1ccccc1)c1ccccc1	-1	2	6	-5	-0.2	-13

Results in D2 potentiator, CtBP-E1A inh and TRPV1 potentiator, for four of the compounds above:
Compound | D2 potentiator | CtBP-E1A inh | TRPV1 potentiator
Nc1c2c(nc3ccccc13)N(C1CCCCC1)CC2 | -39 | 6 | -4
CC1CCCCC1NC(=O)CSc1ccc([N+](=O)[O-])cc1 (centres undefined) | -1 | 4 | 6
CCCN1CCN(CCCNC(=O)c2cc3c(s2)-c2c(C)cccc2OC3)CC1 | -29 | -2 | 13
Cc1ccc(CC2SC(N)=NC2=O)cc1 (centres undefined) | -1 | 14 | -18

Next section.
SMILES	D2 potentiator	Six1-Eya2 blk	CtBP-E1A inh	TRPV1 potentiator	TRPML1 agonist	TRPML1 inh
Cc1ccc(S(=O)(=O)CCSc2nccn2C)cc1	1	-2	15	5	0.9	-9
CC(=O)C1=C(O)C(=O)N(CO)C1c1ccccc1F (centres undefined)	-10	5	5	0	-0.3	5
O=c1c2ccccc2[nH]c2ccc(F)cc12	2	4	8	-5	-0.5	-11
O=C(NCC(c1cccs1)N1CCOCC1)c1cc(-c2ccc(F)cc2)nc2ccccc12 (centres undefined)	-32	?	0	-1	-0.1	-7
O=C(O)c1ccc(NC2CC(=O)N(Cc3ccccc3)C2=O)cc1 (centres undefined)	-1	3	·	-2	1.3	7
Cc1cccc(-c2nc(-c3ccncc3)no2)c1	-3	-6	4	-6	1.3	10
CC12CCC(=O)N1C(C(=O)Nc1nc(-c3ccccc3Cl)cs1)CS2 (centres undefined)	3	-7	-4	-1	1.5	-1
CC(=O)Nc1ccc(NC(=O)Cc2ccc(S(=O)(=O)N3CCCCC3)s2)cc1	4	-14	-14	7	-0.1	-7
O=C(O)c1ccc(CNC(=O)C2CCN(S(=O)(=O)c3cccs3)CC2)cc1	-4	0	4	·	0.2	0
Cc1csc(NC(=O)c2ccc(C)o2)n1	-9	-7	-8	-4	-0.4	-10
Cc1cccc(-c2noc(CN(C)C(=O)c3ccc4c(c3)OCO4)n2)c1	-4	11	16	-8	3.0	51
COc1cc(CNC(=O)Nc2nnc([C@H]3C[C@H](O)[C@@H](CO)O3)s2)cc(OC)c1OC	0	0	3	·	-0.2	·

Shown as comma-separated lines: part of the list above.
Compound,D2 potentiator,Six1-Eya2 blk,CtBP-E1A inh,TRPV1 potentiator,TRPML1 agonist,TRPML1 inh
COCCN(C(=S)Nc1ccc(OC)cc1)C1CCN(C(C)C)CC1,-19,1,-1,-1,0.2,13
CCC(=O)C1=C(O)C(c2cccc(Oc3ccccc3)c2)CCC1=O (centres undefined),-7,6,·,0,2.0,-4

Part of the list above, with each value named:
SMILES: CC(=O)C1=C(O)C(=O)N(CO)C1c1ccccc1F (centres undefined)
- D2 potentiator = -10
- Six1-Eya2 blk = 5
- CtBP-E1A inh = 5
- TRPV1 potentiator = 0
- TRPML1 agonist = -0.3
- TRPML1 inh = 5
SMILES: Cc1cccc(-c2nc(-c3ccncc3)no2)c1
- D2 potentiator = -3
- Six1-Eya2 blk = -6
- CtBP-E1A inh = 4
- TRPV1 potentiator = -6
- TRPML1 agonist = 1.3
- TRPML1 inh = 10
SMILES: Cc1cccc(-c2noc(CN(C)C(=O)c3ccc4c(c3)OCO4)n2)c1
- D2 potentiator = -4
- Six1-Eya2 blk = 11
- CtBP-E1A inh = 16
- TRPV1 potentiator = -8
- TRPML1 agonist = 3.0
- TRPML1 inh = 51
SMILES: O=C(NCC(c1cccs1)N1CCOCC1)c1cc(-c2ccc(F)cc2)nc2ccccc12 (centres undefined)
- D2 potentiator = -32
- Six1-Eya2 blk = ?
- CtBP-E1A inh = 0
- TRPV1 potentiator = -1
- TRPML1 agonist = -0.1
- TRPML1 inh = -7

More compounds follow:
SMILES	D2 potentiator	Six1-Eya2 blk	CtBP-E1A inh	TRPV1 potentiator	TRPML1 agonist	TRPML1 inh
C[C@H](O)[C@@H]1C(=O)N2CCc3ccc(N4CCOCC4)cc3[C@@H]2C[C@@H]1N(C)C(=O)Nc1ccccc1	·	8	0	·	-0.9	7
COc1ccc(CN2CCN(Cc3ccc(CO)o3)CC2CCO)cc1C (centres undefined)	-4	5	-5	4	0.2	-2
Cn1cc(S(=O)(=O)N2CCCC2)cc1C(=O)NCCc1ccccc1	-6	1	6	-3	0.0	-2
CCOc1ccc(CCNC(=O)COC(=O)C2CCN(c3ccc(C(F)(F)F)cn3)CC2)cc1OCC	-2	-2	0	1	0.1	8
